# Assay outcomes: PubChem BioAssay, National Center for Advancing Translational Sciences (NCATS)
# TRPV1 potentiator: human TRPV1 potentiation | TRPV1-expressing cells, Fluo-8 calcium influx, capsaicin EC20 potentiation; host cell line not named in the record; control for the full effect not named in the record | actives 0.02% (n = 320,000) | potentiation, % at 8.33 µM | AID 540277 | Q8NER1; active means potentiation above 80%; inconclusive means 30% to 80%; inactive means below 30%; note: 0% is about no effect
# Target sequence (Q8NER1 whole entry, looked up): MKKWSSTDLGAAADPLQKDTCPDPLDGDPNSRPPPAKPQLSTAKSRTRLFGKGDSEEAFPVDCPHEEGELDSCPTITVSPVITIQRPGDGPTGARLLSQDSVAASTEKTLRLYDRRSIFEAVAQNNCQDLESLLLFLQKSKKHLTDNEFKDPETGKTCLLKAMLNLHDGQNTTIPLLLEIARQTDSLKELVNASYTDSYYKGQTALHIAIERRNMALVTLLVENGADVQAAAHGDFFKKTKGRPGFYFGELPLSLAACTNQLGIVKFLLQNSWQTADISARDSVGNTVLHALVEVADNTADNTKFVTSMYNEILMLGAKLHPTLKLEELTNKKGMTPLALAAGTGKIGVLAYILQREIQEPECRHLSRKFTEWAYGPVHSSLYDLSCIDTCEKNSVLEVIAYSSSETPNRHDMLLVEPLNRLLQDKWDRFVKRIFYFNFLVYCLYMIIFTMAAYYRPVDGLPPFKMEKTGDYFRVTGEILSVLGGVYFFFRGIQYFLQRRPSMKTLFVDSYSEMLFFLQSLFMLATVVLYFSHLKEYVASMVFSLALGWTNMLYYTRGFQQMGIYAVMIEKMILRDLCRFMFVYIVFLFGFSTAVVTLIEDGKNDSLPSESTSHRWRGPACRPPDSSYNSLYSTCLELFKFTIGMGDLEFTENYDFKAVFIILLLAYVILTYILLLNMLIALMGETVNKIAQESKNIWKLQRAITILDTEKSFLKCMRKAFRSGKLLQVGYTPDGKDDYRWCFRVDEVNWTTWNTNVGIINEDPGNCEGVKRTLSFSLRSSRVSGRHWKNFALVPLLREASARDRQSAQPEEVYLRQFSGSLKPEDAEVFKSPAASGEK
#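 TRPV1-expressing cells were cultured overnight at 35.5C and loaded with Fluo-8 calcium dye for 40 to 90 min at room temperature. After a 10 s baseline, compound was added and calcium influx was read kinetically for 3 min (ex 480/em 520 nm).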
# TRPML1 agonist: agonists of human TRPML1 channel. AID 624414. Q9GZU1. TRPML1-expressing cells, Ca2+ dye fluorescence, FDSS; host cell line not named in the record; reference of the full effect not given here. activation, % (test concentration not listed). actives 0.12% (n = 410,000); in the data active = activation above about 50%; inconclusive = about 30% to 50%; inactive = below about 30%; note: 0% is about no effect; the text of the record puts the active cut at 80%
#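 Kinetic FDSS Ca2+ read in Tet-induced TRPML1-DL cells (ABD Ca8 dye plus quencher, 45-90 min RT loading): baseline, then compound, then 110 s agonist window; EC80 agonist 54-4 at 4uM final added afterwards for a 110 s antagonist window.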
# PINK1 expr mod: PINK1 expression modulation | PINK1 immunofluorescence, high-content cytometry, 24 h | Potency, µM (series often up to 76.6 µM), inactives show top-dose activation (PINK1 increase), hits mostly activators | actives 0.2% (n = 410,000); active = well fitted activation curve with a large enough effect; inconclusive = small, poorly fitted or top-dose-only effect; inactive = flat fitted curve, though single readings scatter; cell line not stated here;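 note: potency is the fitted concentration of half-maximal effect; % of control where 0% means no effect; nearly all actives have a fitted effect of over 65% in size; a mitochondrial uncoupler was the plate control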
#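 Cells are seeded, rested 12 hours, then given compound at five concentrations or DMSO for 24 hours. After fixation, blocking and antibody staining, PINK1 amount and mitochondrial localization are scored; CCCP serves as control.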
# Menin-MLL FL inh: inhibitors of human menin-MLL interaction, wild-type MLL peptide. FP activity change, % at 61.4 µM. 290,000 tested, under 10 active. Fluorescence polarization, fluorescein-MLL peptide displacement from menin. AID 1766; inconclusive = falling polarisation curve, or a change in total fluorescence; inactive = total fluorescence flat and polarisation flat or rising; no compound was filed as active; the % refers to the polarisation; negative = inhibition;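 note: % of control where 0% means no effect; inhibitors lower the polarisation; unlabelled MLL peptide was the positive control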
# ClpP mod: qHTS Assay for Activators of ClpP; purified B. subtilis ClpP, FRET peptide cleavage, 20 min; actives 1.9% (n = 340,000); ATP-dependent Clp protease proteolytic subunit (Bacillus subtilis (strain 168)), P80244; Potency, µM (doses to about 57.5 µM), for inactives: at the top dose activity change, negative = active; active = well fitted falling curve with a large enough effect; inconclusive = small, poorly fitted or top-dose-only effect; inactive = no such curve, though single readings can be large or run the other way; note: potency is the fitted concentration of half-maximal effect; the source files actives as falling curves though it sought activators and does not explain the sign; nearly all actives have a fitted effect of over 65% in size; many hits overshoot -100%
# Target sequence (P80244 whole entry, looked up): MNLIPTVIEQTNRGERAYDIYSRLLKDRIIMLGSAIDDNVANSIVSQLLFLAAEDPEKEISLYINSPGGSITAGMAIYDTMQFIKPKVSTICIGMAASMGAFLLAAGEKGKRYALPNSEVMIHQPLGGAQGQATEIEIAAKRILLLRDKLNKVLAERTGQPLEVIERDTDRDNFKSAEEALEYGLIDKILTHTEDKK
#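 FRET quenching reversal measured ClpP activation: 10 microg/mL B. subtilis ClpP at pH 8 with the FRET-FV decapeptide, read at 430 nm after 320 nm excitation. The 20-min minus 0-min signal was scaled between DMSO/no-enzyme wells and ADEP (5.8 microM final).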
# TRPML1 blocker: blocks the human TRPML1 channel | Q9GZU1 | TRPML1-inducible cells, Ca2+ dye fluorescence, FDSS; stronger effect = lower value; inhibition of EC80 agonist-evoked calcium signal | activity change, negative = inhibition, % (concentration not given with the values) | actives 0.02% (n = 390,000); in the data active means activity change below about -50%; inconclusive means about -30% to -50%; inactive means above about -30%;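 note: stimulus is agonist 54-4 at its EC80 concentration; % is set by controls: 0 for no effect and ±100 for the full control effect; compound concentration not given in the record; the text of the record puts the active cut at -80%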
#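 Tet-induced TRPML1-DL cells loaded with Ca8 no-wash calcium dye were read kinetically on FDSS. Compound addition was followed by EC80 agonist 54-4 (4 uM final); inhibition was read over 110 s.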
# Sfp PPTase inh: inhibitors of Bacillus subtilis Sfp phosphopantetheinyl transferase | Biochemical Sfp PPTase activity, qHTS | actives 3.5% (n = 310,000) | Potency, µM, inactives show max response, negative = inhibition, hits mostly inhibitors | Q9F4F7 | AID 1490; active = well fitted inhibition curve with a large enough effect; inconclusive = small, poorly fitted or top-dose-only effect, or another doubt; inactive = no such curve, though single readings can be large or run the other way;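 note: the enzyme is Sfp with the accession as filed and its product quenches rhodamine fluorescence; potency is the fitted concentration of half-maximal effect; 0% = enzyme reaction without inhibitor and -100% = no enzyme wells; top concentration of the series not given in the record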
#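 Compounds were incubated with enzyme (final 15 nM) for 15 min at room temperature before substrate addition started the reaction. Fluorescence at 525 nm excitation, 598 nm emission was recorded immediately and after 30 minutes.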
# Numbers without * were called inactive; ? = inconclusive; . = not tested or not shown; [ ] = another dose, or the depositor's remark.
SMILES,TRPV1 potentiator,TRPML1 agonist,PINK1 expr mod,Menin-MLL FL inh,ClpP mod,TRPML1 blocker,Sfp PPTase inh
COC(=O)c1nc(-c2ccc3c(n2)C(=O)C(N)=C(OC)C3=O)c(N)c(-c2ccc(OC)c(OC)c2O)c1C,-3.8,-0.5,3.2%,10.9,.,-8.8,15.8µM*
CCC(=NCc1ccco1)c1c(O)n(-c2ccccc2)c(=O)[nH]c1=O,0.2,-0.7,-0.9%,2.2,4.7%,-0.4,7.4%
Cc1ccccc1-n1c(O)c(C=Nc2ccc3c(c2)OCO3)c(=O)[nH]c1=O,3.0,-0.3,1.8%,2.5,-1.1%,0.7,-6.1%
CCC(=Nc1ccccc1N)c1c(O)[nH]c(=O)[nH]c1=O,-7.1,0.4,-1.6%,-1.8,?,16.0,-5.7%
C(=NC1CCCCC1)c1c[nH]c2ccccc12,.,0.1,1.2%,.,0.6%,-6.0,.
CC(C)COc1ccc(Cc2c(O)[nH]c(=S)[nH]c2=O)cc1,-3.0,0.7,-0.6%,-8.0,-1.3%,8.1,?
COc1ccc(-n2c(O)c(/C(C)=N/Nc3ccccc3)c(=O)[nH]c2=O)cc1,1.3,4.6,0.8%,2.4,.,10.0,0.0%
Cc1c(C)c2ccc(OCC(=O)N3CCC(C(=O)O)(c4ccccc4)CC3)c(C)c2oc1=O,-2.9,.,-0.2%,-1.9,5.2%,.,24.2%
COc1cccc(Oc2coc3cc(OC(=O)N(C)C)ccc3c2=O)c1,-15.5,1.2,-0.5%,2.0,-3.5%,37.2,11.5%
O=C(O)C1C2CCC(O2)C1C(=O)Nc1ccc(F)c(F)c1 (stereo not drawn),0.1,-0.2,6.4%,-3.5,0.3%,6.3,-5.6%
CCCNC(=O)N1[C@H]2CC[C@@H]1C(C(=O)OC)=C(c1cccc(Cl)c1)C2,-14.8,0.1,2.9%,.,0.5%,15.6,.
COc1ccc2c3c1OC1C(O)C=CC4[C@@H](C2)N(C)CC[C@]314 (stereo partly drawn),.,-0.4,-0.1%,.,1.0%,2.2,.
CCN(CC)C(=O)c1ccc(NC(=O)COC(=O)c2ccc(Cl)s2)cc1,-49.1,-1.3,2.1%,.,0.1%,1.9,.
COc1cccc(CN2CCCC(C(=O)c3ccccc3SC)C2)c1O (stereo not drawn),-18.7,2.1,-0.1%,1.7,-1.3%,49.1,-13.7%
CCc1ccc(-n2c(O)c(/C=N/NC(=O)c3ccncc3)c(=O)[nH]c2=O)cc1,-2.8,0.8,1.7%,?,-3.3%,9.8,21.6%
CCCC(C)C1C(C#N)=C(N)Oc2c1c(=O)oc1ccccc21 (stereo not drawn),-15.0,0.3,15.1%,0.3,3.5%,-8.5,23.7%
CCC(=NCc1ccco1)c1c(O)n(-c2ccc(C)cc2)c(=O)[nH]c1=O,18.8,0.1,-4.2%[38.3 µM],5.3,-3.0%,-0.2,7.6%
CC(=O)CCC(C)=O,2.2,-0.8,1.0%,.,-0.6%,-12.2,.
Clc1ccc(C(Cl)(Cl)Cl)c(Cl)c1,0.5,-0.4,2.9%,.,1.8%,5.4,.
C[N+](C)(C)CC1CCCc2ccccc2C1=O (stereo not drawn),.,-0.1,-1.7%,.,14.8%,-1.7,.
COc1cc(OC)c([C@H]2C=C(C)[C@H]3C[C@@H]2C3(C)C)c(OC)c1,.,1.3,?,.,.,16.6,.
COC(=O)C1=C(c2c(C)noc2C)C[C@@H]2CC[C@H]1N2C(=O)NCCO,-3.4,-0.1,-0.7%,.,-0.4%,16.2,.
Cc1cccc2c1N(N=O)CCC2,8.1,0.5,-0.9%,-0.9,-3.1%,-15.7,?
Cc1cc(/C=C2\C(=O)NC(=O)N(c3cccc(Br)c3)C2=O)c(C)n1C,28.9,0.6,?,14.1,1.7%,5.7,1.7%
Cc1cc(C)nc(N2Cc3ccccc3C2=N)n1,1.9,-0.1,1.3%,1.1,-0.4%,1.6,12.2%
CCCSP1(=S)NCCCO1 (stereo not drawn),4.7,-0.9,1.9%,1.7,-1.9%,17.0,-15.1%
COc1ccc(CCNCc2ccc(SC)cc2)cc1,-2.4,-0.1,.,-1.0,-6.6%,15.1,6.5%
CN1C(=O)CCC2(C)C1=CCC1C2CCC2(C)C1CCC2(C)O (stereo not drawn),.,-0.3,0.2%,.,.,31.2,.
CCN(CC)CC(O)c1ccc(C2CCCC2)cc1 (stereo not drawn),4.8,-1.0,0.0%,2.7,1.5%,2.1,5.2%
C[C@@H]1CN([C@H](C)CO)C(=O)CCCn2nncc2CO[C@H]1CN(C)C(=O)Oc1cccc2ccccc12,.,1.5,3.7%,.,1.7%,-8.5,.

# An excerpt from further up:
SMILES,TRPV1 potentiator,TRPML1 agonist,PINK1 expr mod,Menin-MLL FL inh,ClpP mod,TRPML1 blocker,Sfp PPTase inh
CCN(CC)CC(O)c1ccc(C2CCCC2)cc1 (stereo not drawn),4.8,-1.0,0.0%,2.7,1.5%,2.1,5.2%
C[C@@H]1CN([C@H](C)CO)C(=O)CCCn2nncc2CO[C@H]1CN(C)C(=O)Oc1cccc2ccccc12,.,1.5,3.7%,.,1.7%,-8.5,.

# Next section
SMILES,TRPV1 potentiator,TRPML1 agonist,PINK1 expr mod,Menin-MLL FL inh,ClpP mod,TRPML1 blocker,Sfp PPTase inh
COc1ccc(Nc2cc(C)c3cc(NC(=O)c4ccccc4Cl)ccc3n2)cc1,.,-1.0,7.2%,.,?,15.3,.
CN1CCN(CCC(C#N)(c2ccccc2)c2ccccc2)CC1,3.0,0.3,-0.7%,4.2,1.0%,18.2,1.5%
COc1ccccc1OP(=O)(Nc1cccnc1)Oc1ccccc1OC,-4.0,0.3,3.0%,1.2,-1.1%,?,10.2%
Cc1ccc(-c2nn(Cc3ccccc3)cc2C=O)cc1C,-1.8,3.9,16.8%,7.3,-0.2%,-9.4,-2.0%
Cn1c(C(=O)O)c(CC(=O)N2CCN(Cc3ccccc3)CC2)c2ccccc21,17.3,0.5,0.9%,1.8,2.0%,10.0,8.8%
Cc1cc(N=Nc2ccccc2C)ccc1N,.,0.5,-0.4%,.,.,6.7,.
CN1C(=O)C(=Cc2ccc(N3CCOCC3)o2)C(=O)N(C)C1=S,1.4,10.9,0.3%,?,.,-0.8,6.4%
COC(=O)C1=C(c2ccc(F)cc2OCc2ccccc2)C[C@@H]2CC[C@H]1N2C(=O)NC1CC1,-9.6,0.3,-0.1%,.,-6.5%,-11.0,.
O=C(O)C(Cc1cnc[nH]1)NS(=O)(=O)c1ccc(Cl)cc1 (stereo not drawn),-16.0,1.4,2.4%,1.9,0.7%,4.7,-22.2%
CC(=O)C1C2c3ccccc3O[C@@]1(C)N=c1s/c(=C/c3ccoc3)c(=O)n12 (stereo partly drawn),-13.2,-0.2,0.5%,?,-0.3%,-2.0,?
O=C(O)CCn1cc(C=C2C(=O)NC(=S)NC2=O)c(-c2ccccc2)n1,1.6,0.0,0.8%,1.9,.,-12.7,14.1µM*
CNC(=O)O/N=C(/C)SC,.,.,-1.6%,3.8,.,.,15.9%
CC(=NCC1CCCO1)c1c(O)n(-c2ccc(Cl)cc2)c(=O)[nH]c1=O (stereo not drawn),-3.1,-0.4,6.8%[38.3 µM],-2.9,-1.6%,21.7,6.5%
O=C(Nc1ccc(Br)cc1C(=O)c1ccccc1)c1ccccc1,.,-0.9,5.3%,.,-0.1%,-18.5,.
O=C1c2cccc3cc([N+](=O)[O-])cc(c23)C(=O)N1c1ccccc1O,-1.7,-0.1,3.0%,?,.,0.8,-5.3%
CN1CCN(c2cc(N3CCNCC3)ccc2[N+](=O)[O-])CC1,2.7,2.1,1.9%,4.3,1.5%,-14.0,-9.8%
O=C1C=C(N2CC2)c2ccccc2C1=O,.,-0.1,-0.9%,.,1.2%,4.2,.
CN1CCCC1c1ccc(=O)[nH]c1 (stereo not drawn),.,0.2,-2.9%,.,31.6µM*,-10.0,.
CCOP(=O)(OCC)C(O)c1ccc(OC)cc1OC (stereo not drawn),-0.5,0.0,1.9%,1.2,-0.6%,29.6,9.0%
N#Cc1ccc(NC(=O)CCNC(=O)c2ccco2)cc1Cl,3.1,-0.1,4.1%,-0.2,.,-10.3,7.1%
Cc1ccc(NC(=O)N2CC2)cc1NC(=O)N1CC1,.,1.9,-2.2%,.,.,-7.5,.
CCC(C(=O)N1C[C@H]2C[C@@H](C1)c1cccc(=O)n1C2)c1ccccc1 (stereo partly drawn),0.8,.,1.1%,2.2,-16.3%,.,-0.2%
O=c1[nH]c2ccccc2n1C1CCN(C(c2nnnn2C2CCCC2)C2CC2)CC1 (stereo not drawn),.,-0.9,1.2%,.,-3.5%,11.8,.
Cc1oc(-c2ccccc2)nc1CN1C(=O)C(C)N=C(c2ccccc2F)c2cc(Cl)ccc21 (stereo not drawn),-2.5,-0.6,4.4%,2.6,-0.4%,31.7,-11.5%
O=c1cc(CN2CC=C(c3ccccc3)CC2)c2c(ccc3ccccc32)o1,7.5,-0.4,-0.7%,13.0,.,14.4,14.1%
Cc1ccc(-n2c(/C=C/c3ccccc3)nc3ccccc3c2=O)cc1C,.,3.3,-0.5%,.,0.0%,14.7,.
CN(C)C1(c2nnnn2CCOC(=O)Nc2ccc(Cl)cc2)CCCCC1,-9.7,-1.1,0.3%,-1.0,-13.4%,-0.6,-1.3%
OC1(c2ccccc2F)CC2CCC(C1)N2CCN1CCOCC1 (stereo not drawn),5.1,-0.1,-0.4%,1.6,-1.2%,?,4.4%
CCOc1ccc(N=C2SCCCN2C)cc1,-9.9,0.1,2.5%,6.1,1.0%,0.6,-2.0%
C[C@H]1[C@@H](OS(=O)(=O)O)C[C@@H]2C[C@H]([C@@H](O)c3cc(=O)[nH]c(=O)[nH]3)NC3=NC[C@H]1N32,.,-0.9,-0.4%,.,-1.1%,1.3,.
COc1ccc(/C=N/N=C(/N)N[N+](=O)[O-])c(OC)c1,-8.1,1.1,-2.6%,1.8,-6.6%,12.9,3.7%
CC1=Nc2ccccc2/C1=C/c1c(O)n(C)c(=O)[nH]c1=O,0.5,-1.7,3.6%,1.8,0.1%,?,11.6%
O=C(O)C1(Br)CC12c1ccccc1-c1ccccc12 (stereo not drawn),.,0.0,-2.6%,.,-0.6%,-7.0,.
CCOC(=O)CNC(=O)CNC(=O)C(Cc1ccc(N(CCCl)CCCl)cc1)NC(C)=O (stereo not drawn),6.6,3.0,0.5%,4.8,0.8%,18.4,2.7%
CC(=O)c1ccc(OC(=O)N(C)c2ccccc2)cc1,8.5,0.1,-1.3%,0.8,.,-12.1,6.4%

# This is a subset. The share of hits here may be higher or lower than overall.
